# Vif TR-FRET – HIV-1 Vif–A3G interaction blockers – biochemical, TR-FRET, GST-Vif 1-94, biotin-A3G peptide, dose response retest, primary screen (AID 1117319); TR-FRET GST-Vif / biotin-A3G peptide binding; higher % means a stronger effect; test concentration not given here; strong numbers were not always called active; hit rate 0.57% among 260,000; inhibition, %, or IC50 in µM where a hit was titrated;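 active means above the screen mean plus three standard deviations and confirmed in dose response; inconclusive means results disagree or hit not tested in dose response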;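 further: Vif residues 1-94 fused to GST binding biotinylated APOBEC3G peptide 110-148; 0% = full assay without inhibitor and 100% = GST in place of GST-Vif; retest series ran down from 100 µM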
# MLL AF4-AF9 inh – inhibitors of human MLL-AF4/AF9 interaction. P42568. AlphaScreen, biotin-AF4 peptide binding to FLAG-AF9. inhibition, % at 10 µM. hit rate 0.47% among 350,000. AID 651704;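 active means every replicate reaching a set inhibition limit, whatever the replicate mean, cut at about 25% in these data; inconclusive means mean inhibition reaches that limit but some replicates miss it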;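 further: 0% = plate neutral control median and 100% = total signal loss; the record names both 10 and 1 µM as test concentration; the first replicate is given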
# Target sequence (P42568 whole entry, looked up): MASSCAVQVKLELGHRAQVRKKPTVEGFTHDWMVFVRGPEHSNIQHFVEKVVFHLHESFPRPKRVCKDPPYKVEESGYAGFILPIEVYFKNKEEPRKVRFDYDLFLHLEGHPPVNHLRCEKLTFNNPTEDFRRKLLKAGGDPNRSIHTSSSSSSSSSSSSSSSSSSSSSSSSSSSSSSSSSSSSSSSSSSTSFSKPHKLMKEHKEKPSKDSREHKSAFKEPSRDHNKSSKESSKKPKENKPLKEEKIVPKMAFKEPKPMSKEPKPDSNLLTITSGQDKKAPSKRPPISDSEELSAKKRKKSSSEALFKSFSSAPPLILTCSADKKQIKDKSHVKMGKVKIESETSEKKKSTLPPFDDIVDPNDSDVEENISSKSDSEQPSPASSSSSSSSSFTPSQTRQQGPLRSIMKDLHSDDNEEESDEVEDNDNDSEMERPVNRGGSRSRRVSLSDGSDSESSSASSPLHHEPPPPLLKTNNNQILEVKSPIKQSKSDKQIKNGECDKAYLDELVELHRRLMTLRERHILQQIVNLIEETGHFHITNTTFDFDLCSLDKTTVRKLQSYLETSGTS
# rRNA inh HTS – inhibitors of bacterial rRNA selective over humanized ribosomes. hit rate 1.6% among 350,000. E. coli WT GFP vs humanized-ribosome RFP mutants, fluorescence, 24 h; active compounds read low; DMSO median 0, no signal -100. AID 720706. GFP signal change (wild-type ribosome), % (test concentration not listed);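 active means significant combined selectivity score with lowered wild-type GFP, culture density cut under 30%, mutant RFP and density less affected; inactive means any of these conditions unmet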; further: one replicate is shown; some compounds called inactive have numbers as strong as hits
# T cruzi inh – T. cruzi replication inhibition | T. cruzi beta-gal in NIH3T3, luminescence, 90 h | inhibition, % (concentration not given with the values) | hit rate 1.4% among 300,000 | AID 1885;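 active means mean inhibition across valid replicates above about 55%, limit read from the data; inconclusive means mean below that limit but half or more replicates reach it; inactive means mean below it, under half of replicates reach it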;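 further: signal also drops with host cell toxicity which is not excluded here; 0% = plate median of DMSO wells and 100% = zero luminescence signal; higher percent means less beta-gal luminescence so fewer parasites; stock transfer was 50 nL into about 50 µL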
# RanGTP-Impb inh – disruptors of Ran-importin-beta complex formation – biochemical, FRET, CFP-Ran, YFP-importin-beta, homogeneous, primary screen; cell-free CFP-Ran/YFP-importin-beta FRET ratio; inhibition, % (concentration not given with the values); hit rate 1.1% among 300,000;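 active means most replicates above 15%; inconclusive means exactly half above 15%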;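 further: 0% = DMSO wells and 100% = Ran loaded with GDP instead of GTP; wells of about 40 µL received 100 nL stock; the first replicate is given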
# A1 inh – inhibitors of the anti-apoptotic protein A1, read as caspase activation. MEF A1-2A-BIM cells, Caspase-Glo 3/7 luminescence, 3 h; percent of clofoctol response, vehicle zero. caspase activation, % (concentration not given with the values). hit rate 0.066% among 330,000. AID 2462;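 active means over half of replicate activation scores above 10%, or exactly half above 10 with the replicate mean above 10; inconclusive means replicate mean below 10 yet half the replicates above 10; inactive means over half of replicates below 10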;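 further: wells of about 30 µL received 50 nL stock; many hits fall short of the cut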
# Calb FLC – C. albicans growth modulation with fluconazole. AID 1979. C. albicans CaCi-2 (fluconazole-resistant clinical isolate) + fluconazole, Alamar Blue growth, 48 h. growth inhibition, % (concentration not given with the values). hit rate 0.57% among 300,000;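 active means most replicates above 75%; inconclusive means exactly half above 75%; inactive means most below 75%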;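 further: all wells also contain fluconazole at 8 µg/ml as a sub-toxic cotreatment; 0% = median of DMSO wells and 100% = median of geldanamycin control wells; wells of about 8 µL received 7.5 nL stock; the first replicate is given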
# Beta apoptosis – beta cell apoptosis inhibition. INS-1E cytokine-induced death, ATP luminescence, 48 h; percent of positive-control rescue, neutral wells zero. hit rate 0.8% among 300,000. AID 435005. protection from apoptosis, % (test concentration not listed);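 active means all replicates at 75% or more, or half of them and the mean; inconclusive means half reach 75% but not the mean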;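 further: 0% = cytokine-treated negative control wells and 100% = positive control rescue; higher means more ATP so stronger rescue from cytokine killing; wells of about 40 µL received 100 nL stock; the first replicate is given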
# rRNA inh HTS OD600 – also measured in rRNA inh HTS; calls as there; OD600 change, %; measured here: OD600 growth;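 optical density of the mix in the first replicate; 0 = DMSO median and -100 = no signal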
# rRNA inh HTS RFP – further read-out of rRNA inh HTS, marked with its call; RFP signal change, %; measured here: RFP humanized mutant strains;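 first replicate; 0 = DMSO median and -100 = no signal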
# Starred values were filed as active, the others as inactive; ? = inconclusive; / = not tested or not shown. These rows are one share of the data. The share of hits here may be higher or lower than overall.
mol	MLL AF4-AF9 inh	A1 inh	Vif TR-FRET	Calb FLC	Beta apoptosis	rRNA inh HTS OD600	RanGTP-Impb inh	T cruzi inh	rRNA inh HTS	rRNA inh HTS RFP
O=[N+]([O-])c1ccccc1S(=O)(=O)Nc1nc2ccccc2s1	-1.9	-0.3	-1.5%	1.0	-2.4	-6.8	2.7	0.4	3.6	-2.3
O=C(O)c1ccc(N/N=C/c2ccc(OC(=O)c3ccccc3Cl)cc2)cc1	/	-0.2	-3.8%	9.3	-10.9	/	2.8	-27.7	/	/
O=C(c1ccc(SCc2cccc(Br)c2)c([N+](=O)[O-])c1)N1CCN(c2ccccn2)CC1	0.4	0.5	3.8%	27.4	-4.3	21.8	-1.4	58.4*	11.1	1.0
Cc1ccccc1S(=O)(=O)c1c(C)cc(-c2ccccc2)[nH]c1=O	/	0.1	-9.4%	-16.8	2.1	/	3.1	-1.2	/	/
CCC/C=N/Nc1nnc(Cc2ccccc2)c(=O)[nH]1	-1.8	0.9	0.9%	-3.3	-6.4	6.8	-2.1	-5.1	1.3	-1.7
O=C(CN1CCN(C2CCCCC2)CC1)Nc1ccc(Br)cc1	3.5	-0.1	-2.8%	-40.4	-0.9	9.7	3.1	11.3	7.9	1.8
COc1ccccc1C(CNC(=O)CSc1ccc2ccccc2c1)N(C)C (stereo not given)	3.8	0.0	/	8.8	2.7	-7.4	-1.9	35.7	-1.1	6.2
O=C(Nc1cccc(F)c1)C1CC(=O)N(c2ccc(Br)cc2)C1 (stereo not given)	/	-1.5	-0.8%	11.6	5.0	/	-0.3	-5.8	/	/
Cn1cc(CN2CCCC(C(=O)c3ccc(-c4ccccc4)cc3)C2)cn1 (stereo not given)	-3.8	0.3	12.5%	-12.2	0.0	-11.8	-0.2	?	-6.6	-3.8
CCC(=O)n1nc(-c2ccco2)nc1N	/	1.0	7.4%	5.9	2.3	/	-1.1	-10.0	/	/
O=C(CNC(=O)C1CCCCC1)OCC(=O)c1ccc(Cl)s1	1.3	0.2	/	-4.3	-5.3	7.8	3.1	-15.7	3.9	-0.3
CCCCN(C)CCNC(=O)Cn1ncc2c(=O)oc3ccc(C)cc3c21	2.7	0.0	-6.2%	-0.5	0.2	5.1	-5.2	34.5	0.3	-2.5
CC(C)(C)CC(=O)Nc1cc2c3c(c1)CCN3C(=O)CC2	-2.2	0.7	/	20.1	-4.3	4.5	0.6	2.6	4.8	1.3
Cc1ccccc1NC(=O)C(=O)NCCCN1CCCC1=O	-1.5	-0.3	/	-1.0	-1.2	8.2	1.9	-7.1	17.8	4.0
COC(=O)c1cc2ccsc2n1CC(=O)Nc1cc(Cl)ccc1OC	/	0.9	-4.4%	3.7	22.5	9.1	-0.9	-13.9	8.1	2.5
Clc1cccc(-c2nnc(-c3ccno3)o2)c1	-2.3	0.3	-4.2%	-14.9	3.5	/	-0.8	-16.3	/	/
Cc1ccc(OCC(=O)Nc2cc(NC(=O)COc3ccc(C)cc3)cc(C(=O)O)c2)cc1	-5.1	0.4	/	4.2	-12.0	7.7	?	1.6	2.3	-0.5
CCCOc1ccc(C(=O)NNC(=S)NC(=O)c2ccccc2[N+](=O)[O-])cc1	3.8	1.1	/	-2.4	4.4	-41.2	-2.5	-5.7	-47.2	-8.9
CCC(Oc1ccccc1)C(=O)Nc1nnc(S(=O)(=O)Nc2ccccc2)s1 (stereo not given)	-4.3	0.6	/	9.5	0.4	-22.8	3.5	-10.9	-11.1	-4.2
O=S(=O)(NCCSCc1ccc(Cl)cc1Cl)c1ccc2c(c1)OCCO2	/	0.2	19.5%	-3.9	-2.9	/	2.7	2.1	/	/
Cc1ccc2[nH]c(=O)c(CN(Cc3cccs3)S(=O)(=O)c3ccc4c(c3)OCCO4)cc2c1	0.1	-1.1	-3.9%	4.9	-2.4	-6.8	5.0	15.3	-0.3	-8.4
CC1CC(C)CN(S(=O)(=O)c2ccc3c(c2)CC(C)N3C(=O)C2CC2)C1 (stereo not given)	1.6	-0.1	/	-1.8	-1.7	-12.8	2.5	-3.2	-4.5	-0.6
Cn1c2ccccc2c2c(C(=O)N3CCN(c4ccccc4)CC3)cn(C3CCCC3)c(=O)c21	/	-0.3	-2.4%	30.6	7.4	/	4.2	0.6	/	/
Cc1ccc(NC(=O)N2CCCC2C(=O)Nc2ccc(-n3cnnn3)c(C)c2)cc1 (stereo not given)	/	0.7	9.1%	?	-1.8	/	6.5	-20.4	/	/
COC(=O)c1ccc(Sc2ccccc2NS(=O)(=O)c2ccc(C)cc2)nc1	/	-0.6	5.2%	3.3	7.8	/	1.7	12.1	/	/
CCCCNC(=O)CNC(=O)c1cccs1	/	0.1	-4.0%	-8.0	-8.3	/	-2.3	4.0	/	/
COc1ccc2nc(N3C(=O)CNC3=S)sc2c1	-1.8	-3.0	-2.3%	8.7	/	13.3	3.6	-30.4	-5.3	2.5
CC1=CC(C)(C)n2c(O)c(N=NC(N)=S)c3c(C)c(C)cc1c32	10.2	/	74.5%	3.7	/	-1.4	2.9	24.4	-0.1	-4.2
Cc1ccc(NC(=S)N(CCCN2CCOCC2)Cc2ccco2)cc1Cl	/	0.2	/	-6.4	2.7	/	-0.9	-8.0	/	/
Cc1onc(-c2c(F)cccc2Cl)c1-c1nnc(-c2ccc(C(F)(F)F)cc2)o1	-6.0	-0.1	/	-1.7	0.8	2.9	0.7	52.3	13.1	-2.0
Cc1ccc(C(=O)CSc2nc(-c3ccccc3)cc(=O)[nH]2)cc1	0.9	0.7	1.6%	7.6	-5.9	14.7	2.7	9.6	22.9	5.4
CC(=O)Nc1ccc(SC[C@H](Cc2ccccc2)N2CC[C@@H](C(C)(C)C)CCC2=O)cc1	6.1	3.1	/	/	1.4	4.2	/	/	-4.3	7.2
O=C(CSc1nc(=O)n(CCCN2CCOCC2)c2c1CCCC2)Nc1cccc([N+](=O)[O-])c1	3.2	0.2	5.2%	6.8	11.0	-1.0	1.8	7.4	5.2	2.6
Clc1ccc(Sc2cc(Cl)c(-c3ccccc3)nn2)cc1	/	-0.3	5.8%	-0.4	6.0	/	0.9	13.1	/	/
CN(CC1COc2ccccc2O1)C(=O)CSc1nncs1 (stereo not given)	0.9	-1.6	-8.8%	/	0.8	1.1	/	/	3.9	-3.2
Cc1ccccc1CN1CCN(CC(=O)NCc2ccco2)C1=O	/	0.7	10.7%	1.2	-1.4	/	-0.8	1.2	/	/
COc1ccc(CN(Cc2cccn2C)S(=O)(=O)c2ccc(F)cc2)cc1	/	-0.1	9.4%	-10.1	/	4.7	-2.3	3.5	-12.9	1.4
CC1=C(C(=O)Nc2ccc(C(=O)NCCCN3CCCCC3)cc2)SCCO1	-0.4	0.9	-3.3%	-9.0	0.9	5.1	-4.0	12.3	1.3	0.1
O=C(CSc1nnc(-c2cccs2)n1-c1ccccc1)NCc1ccco1	/	2.4	2.2%	27.5	-5.4	/	-5.8	-12.4	/	/
O=C(/C=C/c1ccc(F)cc1)NC(=S)NNC(=O)c1cccnc1	-59.9	-0.5	/	38.9	-3.6	2.7	0.9	-4.6	-0.6	9.9
NC(=O)Nc1ccc(C(=O)OCC(=O)NC2CCCCC2)cc1	-0.2	-0.2	-0.8%	4.0	-2.5	17.2	5.4	-3.7	17.9	0.6
C=CCn1c(SCC(=O)N(C)c2c(N)n(Cc3ccccc3)c(=O)[nH]c2=O)nnc1-c1ccccc1OC	-0.4	-1.1	/	3.0	-13.8	1.6	-3.1	-7.0	-0.5	-0.7
CCC(=O)c1ccccc1OCCCN1C(=O)NC(C)(C)C1=O	/	-0.6	1.6%	-2.4	-2.7	/	-2.0	0.4	/	/
CC(=O)C1=C(C)NC(=O)CC1c1ccccc1Cl (stereo not given)	-1.7	1.0	14.6%	-12.1	-11.3	0.9	-1.4	-1.4	4.7	-0.1
CCNC(=O)c1cccc(NC(=O)C2CC(=O)N(CCc3ccccc3)C2)c1 (stereo not given)	0.4	-0.3	-8.9%	/	0.3	4.0	/	/	8.7	1.9
O=C(c1ccccc1)N1CCCCC(S(=O)(=O)c2ccccc2)C1=O (stereo not given)	-5.7	0.2	-0.1%	5.9	3.6	6.2	2.9	-27.5	5.9	-0.6
Cc1cccc(NC(=O)c2nc[nH]c2C(=O)N2CCc3ccccc3C2)c1	-6.5	0.3	/	/	-0.2	-3.2	/	/	-0.2	-0.6
CC(OC(=O)C1CCN(S(=O)(=O)c2ccc3c(c2)OCCO3)CC1)C(=O)N(C)c1ccccc1 (stereo not given)	-5.7	2.3	-1.8%	/	0.4	-4.8	/	/	-3.8	3.6
CCC(=O)Nc1ccccc1N1CCN(c2ccc(F)cc2)CC1	-11.9	1.1	0.0%	3.8	7.4	2.5	1.1	-2.1	9.1	2.3
CC(C)(C)OC(=O)N/N=C/c1ccc(N2CCOCC2)s1	-15.8	1.7	/	-3.7	-1.3	3.8	-0.3	-8.0	8.3	3.6
COC(=O)c1ccccc1NC(=O)NCC1CCCO1 (stereo not given)	/	0.0	3.5%	-5.2	0.1	/	?	-10.3	/	/
COc1ccc(C(=O)N2CCC(O)(c3ccc(F)cc3)CC2)cc1OC	/	0.5	-3.1%	3.1	3.0	/	1.8	-4.8	/	/
COc1cc(/C=C2/C(=O)NN(c3cccc(Cl)c3)C2=O)cc(OC)c1O	5.9	-0.1	-3.6%	-0.5	/	-12.2	?	-0.2	-6.4	13.4
O=C(O)/C=C/C(=O)NCCC(c1ccccc1)c1ccccc1	-8.5	0.2	/	-4.1	-5.7	-0.9	0.3	-7.9	-1.0	-4.4
Cc1cc(NCCCN2CCOCC2)n2nc(C)c(-c3ccccc3)c2n1	/	-0.9	-4.5%	-4.8	-9.4	/	5.4	19.9	/	/
COc1cc(-n2ccnc2SC)c(Cl)cc1Cl	/	0.7	15.2%	-3.0	-0.6	/	-1.9	8.7	/	/
O=C(CCCCCn1c(=S)[nH]c2ccc(N3CCOCC3)cc2c1=O)NCCc1ccccc1	/	-0.5	/	1.3	-2.9	/	-1.6	33.2	/	/
Cc1ncc(CSc2nnnn2-c2ccccc2)c(N)n1	1.2	-1.2	6.4%	5.2	-1.1	-9.1*	1.0	-20.7	-21.0*	3.2*
COc1cccc(NC(=O)Nc2nnc(CC(=O)NCc3ccccc3)s2)c1	?	-0.2	-0.4%	-2.3	-8.6	1.1	3.9	-11.9	8.9	-0.2
CC(Oc1cc2oc(=O)cc(-c3ccccc3)c2cc1Cl)C(=O)NCC1CCC(C(=O)O)CC1 (stereo not given)	5.7	1.2	/	-1.2	-0.2	/	6.1	3.9	/	/
CCOCCn1c(CN(Cc2ccccc2)Cc2ccccc2)nc2c1c(=O)[nH]c(=O)n2C	2.1	-0.2	24.1%	-11.4	9.4	5.6	-1.0	27.1	1.6	-2.9

# Screening results as filed in PubChem.
